# 2A StopGo = lowers the luciferase signal of an FMDV 2A StopGo reporter; 410,000 tested, 1.2% active; human cells with a luciferase reporter of 2A StopGo recoding; control for the full effect not named in the record; Potency, µM (titrated, usually from 57.9 µM), for inactives: at the highest dose signal change, negative = less light; active = well fitted falling curve with a large enough effect; inconclusive = small, poorly fitted or top-dose-only effect; inactive = no such curve, though single readings can be large or run the other way; tested in HEK293T cells; further: on the % scale 0 is the no-effect control and ±100 the full control effect; nearly all actives have a fitted effect of over 45% in size; luciferase light after 4 h
# RE007 growth inh = less growth of the S. pombe RE007 Vpr strain; 360,000 tested, 0.21% active; S. pombe RE007 Vpr strain, BacTiter-Glo ATP luminescence, 24 h; control for the full effect not named in the record; Potency, µM (doses to about 92.2 µM), for the others: at the top dose activity change, negative = less growth; active = well fitted falling curve with a large enough effect; inconclusive = small, poorly fitted or top-dose-only effect; inactive = no such curve, though single readings can be large or run the other way;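 further: on the % scale 0 is the no-effect control and ±100 the full control effect; nearly all actives have a fitted effect of over 50% in size; the assay follows cell death caused by Vpr and the record does not say whether a fall means rescue or toxicity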
#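 Fission yeast strain RE007, carrying one chromosomally integrated HIV-1 vpr copy, was seeded at OD 0.01 in PMG+AL medium with 23 nL pinned compound. After 24 h at 30 °C and 99% humidity, viability was read by BacTiter-Glo luminescence.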
# SARS PLpro yeast = SARS-CoV PLP inhibition in yeast. S. cerevisiae expressing SARS-CoV PLpro, growth rescue; control for the full effect not named in the record. Potency, µM (series often up to 32.9 µM), for the others: top-dose activity, positive = growth rescue. 330,000 tested, 0.19% active. AID 485353; active means well fitted rising curve with a large enough effect; inconclusive means small, poorly fitted or top-dose-only effect; inactive means no such curve, though single readings can be large or run the other way; further: 0% is about no effect; nearly all actives have a fitted effect of over 55% in size; growth read by luminescence after 48 h
# Cruzain inh noDet = inhibitors of Trypanosoma cruzi cruzain without detergent. AID 1476. purified cruzain, Z-FR-AMC fluorescence, no detergent. 200,000 tested, 2.3% active. P25779. Potency, µM, inactives show max response, negative = inhibition, usual class: inhibitors;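 further: plate controls were enzyme without inhibitor for no effect and buffer without enzyme for full effect; nearly all actives have a fitted effect of over 40% in size; top concentration of the series not given in the record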
# Target sequence (P25779 123-467 limits assumed): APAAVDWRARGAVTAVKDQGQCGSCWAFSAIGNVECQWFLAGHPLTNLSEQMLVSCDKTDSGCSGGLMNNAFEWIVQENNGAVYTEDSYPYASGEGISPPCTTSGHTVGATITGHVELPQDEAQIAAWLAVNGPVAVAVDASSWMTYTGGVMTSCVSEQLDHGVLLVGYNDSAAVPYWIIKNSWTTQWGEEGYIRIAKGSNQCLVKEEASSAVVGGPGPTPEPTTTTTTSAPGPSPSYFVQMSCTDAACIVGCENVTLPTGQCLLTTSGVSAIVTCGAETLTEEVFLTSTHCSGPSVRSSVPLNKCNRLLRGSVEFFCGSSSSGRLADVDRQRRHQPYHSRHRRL
#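 Detergent-free condition (0.00005% Triton X-100) in acetate buffer pH 5.5 with DTT. 1.5 nM enzyme and compound were pre-mixed 15 min, then 2 uM Z-FR-AMC substrate added; reaction progress from fluorescence change between first and third reads (60 s).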
# MARV entry inh = Marburg virus entry inhibition; Marburg virus pseudotyped entry inhibition, cell reporter; control for the full effect not named in the record; about a third of the inactives were read at about 46 µM; Potency, µM (top dose mostly 37.8 µM), for the others: top-dose activity change, negative = inhibition, hits mostly inhibitors; 300,000 tested, 1.8% active; active = well fitted inhibition curve with a large enough effect; inconclusive = small, poorly fitted or top-dose-only effect, or effect the other way; inactive = flat fitted curve, though single readings scatter; tested in HEK293 cells; about a fifth of its hits are not listed in these tables; further: on the % scale 0 is the no-effect control and ±100 the full control effect; luciferase read-out
# LASV entry inh = Lassa virus entry inhibition; Lassa virus pseudotype entry inhibition, cell reporter; control for the full effect not named in the record; Potency, µM (doses to about 37.9 µM), without a hit: at the top dose activity change, negative = inhibition, actives largely listed as inhibitors; AID 540256; 300,000 tested, 1.2% active; active means well fitted inhibition curve with a large enough effect; inconclusive means small, poorly fitted or top-dose-only effect, or effect the other way; inactive means flat fitted curve, though single readings scatter; tested in HEK293 cells; further: on the % scale 0 is the no-effect control and ±100 the full control effect; nearly all actives have a fitted effect of over 50% in size; luciferase read-out
# NS1 inh = inhibitors of influenza NS1 protein function. S. cerevisiae slowed by influenza A NS1, growth recovery by OD600. Potency, µM (highest dose often 46.1 µM), inactives show at the top dose activity, positive = more growth. 270,000 tested, 0.4% active. AID 2326; active means well fitted rising curve with a large enough effect; inconclusive means small, poorly fitted or top-dose-only effect; inactive means no such curve, though single readings can be large or run the other way; further: nearly all actives have a fitted effect of over 50% in size
#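 OD600 was taken as the measure of yeast growth restored by compound in an NS1-expressing S. cerevisiae strain. Cells had been washed out of glucose medium and diluted 1:100 into galactose -URA medium, pH 6.0.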
# Cruzain Triton = inhibitors of Trypanosoma cruzi cruzain with detergent. purified cruzain, Z-FR-AMC fluorescence, 0.01% Triton. 200,000 tested, 0.43% active. P25779. AID 1478. Potency, µM, for inactives: max response, negative = inhibition, actives largely listed as inhibitors;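 further: plate controls were neutral wells for no effect and buffer without enzyme for full effect; nearly all actives have a fitted effect of over 40% in size; top concentration of the series not given in the record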
#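 Cysteine protease activity tested under reducing, mildly acidic conditions (100 mM sodium acetate pH 5.5, 5 mM DTT) plus 0.01% Triton X-100. Cruzain 1.5 nM; substrate Z-FR-AMC 2 uM; 15 min compound preincubation at room temperature.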
# * = called active by the depositor; u = inconclusive; x = no result given; & = joins results of further samples; [ ] = another dose, or the depositor's remark. Unless noted, the call rests on the fitted dose curve; in most records, active means well fitted curve in the direction sought with a large enough effect; inconclusive means small, poorly fitted or top-dose-only effect, or another doubt; inactive means no such curve, though single readings can be large; an effect the other way counts as inactive or inconclusive. Potency means the concentration at half of the fitted maximal effect.
SMILES,2A StopGo,RE007 growth inh,SARS PLpro yeast,Cruzain inh noDet,MARV entry inh,LASV entry inh,NS1 inh,Cruzain Triton
Cc1nc2c3cc(F)ccc3n(Cc3ccccc3F)c2s1,0%,-11%,-60%,-11%,u,-16%,-45%,-11%
Cc1cc(NC(=O)CCCN2C(=O)/C(=C\c3cccs3)SC2=S)no1,-13%,-5%,10%,u,u,17%,7%,-0.7%
CCCc1cc(=O)oc2cc(OC(C)C(=O)NCC3CCC(C(=O)O)CC3)c(Cl)cc12 (stereo not given),-6%,6%,-10%,x,x,x,10%,x
Cc1nn(CC(=O)c2ccccc2)c(=O)c2nn(-c3ccccc3F)c(C)c12,4%,-3%,13%,-8%,-2%,28%,24%,-2.0%
CCOC(=O)N1CCN(CC(O)COc2ccccc2[N+](=O)[O-])CC1 (stereo not given),5%,5%,0%,x,x,x,4%,x
COc1cccc(-c2nc3c(C#N)c[nH]n3c2NC2CCCCC2)c1,11%,x,x,3%,u,5%[46.1 µM],x,-5.1%
CC(=O)Nc1ccc(C=NNc2ccc(S(=O)(=O)Nc3ccccc3C(=O)O)cc2[N+](=O)[O-])cc1,0%,-6%,4%,x,u,10%[46.1 µM],x,x
Cc1sc2nc(SCC(=O)Nc3ccc(S(=O)(=O)NCCCC(=O)O)cc3)[nH]c(=O)c2c1C,3%,0%,0%,x,15%[46.1 µM],-10%,x,x
O=C(NCc1ccco1)C(Cc1ccccc1)NS(=O)(=O)c1cccc2nsnc12 (stereo not given),18%,11%,-12%,-11%,-16%,7%,-15%,-2.6%
N#CCCn1cc(C(=O)N2CCCCC2)c(-c2cccc([N+](=O)[O-])c2)n1,-3%,-9%,-1%,x,x,x,0%,x
Cc1cccc2sc(NNC(=O)c3ccc(S(=O)(=O)N4CCc5ccccc5C4)cc3)nc12,u,-1%,10µM*,7.9µM*,u,u,13µM*,12%
COCCNC(=O)CS(=O)Cc1nc(-c2ccc(Cl)cc2)oc1C (stereo not given),-23%,-11%,-5%,-21%,x,x,u,-0.7%
COc1ccc(C2C(C#N)=C(N)OC3=C2C(=O)CC(C)(C)C3)cc1Cn1cc([N+](=O)[O-])cn1 (stereo not given),-8%,-6%,16%,-7%,u,-2%,9%,-6.2%
CCn1ncc(/C=N/NC(=O)c2cc(Cl)ccc2OC)c1C,-14%,35%,14%,4%,8%,-4%,12%,-1.9%
Cc1ccc(-n2c(C)cc(C(=O)COC(=O)c3ccc[nH]c3=O)c2C)cc1C,0%,-23%,-75%,u,u,u,-39%,-8.8%
O=S(=O)(c1ccccc1)n1ccc2ccccc21,0%,-13%,-6%,5%,-20%[46.1 µM],-26%,-11%,-4.6%
N#Cc1ccc(CNc2cnccn2)cc1,-14%,15%,5%,-2%,-2%,-13%,-29%,-2.6%
CCOC(=O)COc1ccc(S(=O)(=O)NCCC2=CCCCC2)cc1,16%,-12%,-9%,-3%,u,4%,-66%,-2.7%
CC1CCN(S(=O)(=O)c2cc(C(=O)Nc3ccc(Br)cc3F)n(C)c2)CC1,-24%,x,x,-17%,x,-6%[46.1 µM],x,-6.9%
O=C1NN=C(c2ccc(Br)cc2)CC1c1ccc(Cl)cc1 (stereo not given),-22%,2%,-16%,x,u,17%[46.1 µM],-16%,x
O=C(NC1CCCC1)c1ccc(Cn2c(=O)[nH]c3ccsc3c2=O)cc1,4%,-14%,-4%,x,x,x,-12%,x
NNC(=O)Cn1c(COc2ccc(Cl)cc2)nc2ccccc21,19%,-7%,3%,1%,1%,-4%,u,-3.2%
Cc1oc2cc3oc(=O)c(CCC(=O)NCCCN4CCCC4=O)c(C)c3cc2c1C,9%,-13%,5%,x,x,x,-4%,x
COc1ccc(CNc2nc(C)c([N+](=O)[O-])c(C)c2C#N)cc1,-26%,1%,11%,-5%,-7%,12%,4%,-9.5%
O=c1[nH]c2cccnc2n1-c1cccc([N+](=O)[O-])c1,-11%,5%,-2%,x,13%[46.1 µM],4%,-5%,x
CCc1nn2c(N)c(/C=C3\C=Nc4ccccc43)c(=O)nc2s1,-1%&-9%,-11%&3%,-3%&-2%,u,-4%[14.2 µM],3%&-1%,-10%&11%,-8.0%
Cc1cc(C(=O)N2CCCC(C(=O)c3cccc4ccccc34)C2)nc(C)n1 (stereo not given),-2%,-1%,-1%,x,x,x,0%,x
Cc1nnn(C23CC4CC(CC(C4)C2)C3)n1,1%,8%,x,2%,2%,4%,7%,10%
CCOc1ccccc1C(C(=O)NC1CCCC1)N(C(=O)c1csnn1)C1CC1 (stereo not given),15%,1%,2%,x,-6%[46.1 µM],7%[46.1 µM],-3%,x
COc1ccc(C(=Cc2cc(OC)c(OC)cc2[N+](=O)[O-])C(=O)O)cc1,-3%,2%,x,x,0%,-3%,x,x
COc1ccc(CNC(=O)C(C)c2ccc([N+](=O)[O-])cc2)cc1 (stereo not given),-10%,-8%,-1%,x,-10%[46.1 µM],-11%[46.1 µM],-5%,x
CCN(CC)c1ccc(C(=O)NNC(=O)CNC(=O)c2ccco2)cc1,8%,-4%,5%,x,-2%,-3%[46.1 µM],x,x
COC(=O)c1ccc(C)c(NC(=O)CCc2cc(OC)c(OC)c(OC)c2)c1,3%,-13%,5%,-1%,18%,13%,-5%,-1.3%
CC(C)N1C(=O)CCC1C(=O)NCc1cccs1 (stereo not given),-13%,-5%,-3%,x,22%[46.1 µM],15%,x,x
O=C(NC(=S)Nc1ccc2[nH]c(=O)[nH]c2c1)c1ccccc1F,-14%,0%,2%,x,5%[46.1 µM],-4%[46.1 µM],7%,x
Cn1ncc(C#N)c1NC(=O)c1cc(-c2ccccc2Cl)on1,30%,-11%,-2%,-6%,13%,0%,-9%,-2.5%
O=C(O)c1cnn2c1NC(c1cccs1)CC2C(F)(F)F (stereo not given),-19%,2%,7%,1%,6%[46.1 µM],22%,19%,2.5%
O=c1[nH]cnc2sc(-c3ccccc3)cc12,x,-10%,-5%,8%,u,13%,-72%,-0.7%
CCc1ccc(C(=O)COC(=O)CNC(=O)COc2ccccc2)cc1,6%,12%,2%,-18%,-13%&-13%[46.1 µM],u,-9%,-15%
O=C(CN1C(=O)c2ccccc2S1(=O)=O)c1ccc2c(c1)OCCO2,3.5µM*,-15%,0%,x,x,x,4%,x
CC(=O)c1ccccc1NC(=O)COC(=O)/C=C/c1cccs1,-16%,12%,1%,x,-16%[46.1 µM],-3%,x,x
CCCNC(=O)COC(=O)/C=C/c1cccc(F)c1,23%,-4%,0%,x,3%[46.1 µM],-5%[46.1 µM],x,x
Cc1nc2ccccc2nc(C)c1=NOCc1ccc(Cl)cc1Cl,-24%,11%,-11%,18%,u,-18%,-7%,-5.0%
COc1cccc(C(=O)CN(C(=O)c2ccc(Cl)cc2Cl)N2C(=O)c3ccccc3C2=O)c1,-18%,-9%,-1%,-12%,5%,0%,-11%,-2.7%
CC(C)CCN(C(=O)c1csnn1)C(C(=O)NC1CCCC1)c1ccccc1 (stereo not given),20%,0%,-1%,x,u,-16%[46.1 µM],u,x
CC(Oc1ccccc1Br)C(=O)N1CCc2ccccc21 (stereo not given),19%,-2%,-6%,0%,-1%,6%,-72%,-4.5%
Cc1ccc(N(C(C)C(=O)N2CCC(C)CC2)S(C)(=O)=O)cc1C (stereo not given),x,5%,0%,-3%,u,4%,-2%,2.7%
O=C(NNS(=O)(=O)c1ccccc1Cl)c1nn(-c2ccc(F)cc2)ccc1=O,-25%,27%,0%,x,2%,0%,1%,x
CN(c1ccc(C(=O)Nc2ccc3c(c2)OCCO3)cc1)S(C)(=O)=O,x,5%,2%,0%,u,-28%,0%,-0.1%
CC1(C)NC(=O)N(CC(=O)N2CCCC(C(F)(F)F)C2)C1=O (stereo not given),-12%,3%,4%,x,8%,10%,x,x
O=[N+]([O-])c1cccc(-c2nnc3ccc4ccccc4n23)c1,11%,0%,24%,-1%,11%,1%,-1%,-2.1%
CC[C@@]1(O)C(=O)OCc2c1cc1n(c2=O)Cc2cc3c(N)cccc3nc2-1,u,3%,0%,x,x,x,2%,x
Cc1ccc(-n2ncc3c(NCCC4=CCCCC4)ncnc32)cc1C,11%,x,x,8%,x,u,x,2.1%
Cc1c(C(=O)N2CCc3ccccc32)cnn1C,39%[activator],-27%,-5%,-4%,u,u,-2%,-0.7%
CC(C)=NNC(=O)c1c(O)c2ccccc2[nH]c1=O,4%,12%,0%,x,x,x,0%,x
CCn1cc([N+](=O)[O-])c(C(=O)Nc2nc(-c3ccc(C)cc3)c(C)s2)n1,-18%,0%,3%,u,11%,-17%,-6%,4.0%
CCNC(=O)CCSc1nnc(-c2ccco2)o1,6%,3%,2%,-9%,u,u,21%,-2.0%
Cc1cc(N2C(=O)C(O)=C(C(=O)c3cc4ccccc4o3)C2c2ccc(OC(C)C)cc2)no1 (stereo not given),u,2%,-4%,x,x,x,12%,x
CCN1C(=O)c2ccccc2S(=O)(=O)c2ccc(C(=O)NC(C)C)cc21,9%,-5%,-1%,x,5%[46.1 µM],-1%[46.1 µM],4%,x
CC(C)[C@H](NS(=O)(=O)c1ccccc1F)C(=O)OCC(=O)Nc1cccc(S(N)(=O)=O)c1,-7%,2%,-4%,x,-7%[46.1 µM],-1%[46.1 µM],x,x
CCOc1ccccc1NC(=O)CSc1ccc2nc(-c3ccccc3)cn2n1,-9%,x,x,-6%,x,-14%[46.1 µM],x,-2.1%
CCOc1ccc(C(=O)N(Cc2sccc2C)C2CCS(=O)(=O)C2)cc1 (stereo not given),-2%,x,x,-7%,1%[46.1 µM],11%[46.1 µM],x,-2.3%
CCCCOc1ccc(C(=O)Nc2cc(-c3ccc(C)cc3)no2)cc1,0%,x,x,-7%,4%[46.1 µM],-2%[46.1 µM],x,-2.0%

# Screening results (PubChem BioAssay)
